Mtb growth = Confirmatory growth inhibition assay against Mycobacterium tuberculosis H37Rv, potency (AID 1949); one-dose inhibition, % at 10 µg/mL; IC50 in µg/mL for titrated hits; most inactive calls were filed without a number and no value below 0 was filed; hit rate 1.6% among 100,000;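 active = confirmed in a dose series; inconclusive = about 50% or more but not retested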;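 note: bacteria grown 7 days with compound before Alamar blue readout; 0% = untreated bacteria and 100% = reference antibiotic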
Starred values were filed as active, the others as inactive; i = inactive; ? = inconclusive.

canonical_smiles | Mtb growth
COc1ccc([N+](=O)[O-])cc1NC(=O)c1ccc2c(c1)C1C3CCC(C3)C1C(c1ccccc1)N2 (centres undefined) | i
COc1ccc(C(C)n2c(C)c3c(C)nnc(C)c3c2C)cc1 (centres undefined) | i
COCCNC(=O)c1ccccc1NS(=O)(=O)c1ccc(F)cc1 | i
COc1cccc(N(CC(=O)Nc2cccc(F)c2)S(C)(=O)=O)c1 | i
CCOc1ccccc1OCC(=O)Nc1ccc(OCc2ccccc2)cc1 | i
Cc1cccc(-c2nc(NCCCN3CCOCC3)c3ccccc3n2)c1 | i
CC(NS(=O)(=O)c1ccc(OCC(=O)Nc2ccccc2C(F)(F)F)cc1)c1ccccc1 (centres undefined) | i
Cc1nc2ccc(C(=O)N3CCC(c4ccccc4)C3)cc2s1 (centres undefined) | i
O=C(CSc1nsc(SCC(=O)N2CCCCC2)n1)N1CCCCC1 | 4%
Cc1cccc(C(=O)Nc2ccccc2F)c1[N+](=O)[O-] | 4%
O=C(CC12CC3CC(CC(C3)C1)C2)Nc1ccc(N2CCN(C(=O)c3cccs3)CC2)cc1 | i
Cc1c(Cl)cccc1-n1nc(C)c2c(C)cc(=O)oc21 | i
CCCCC(CC)CNC(=O)C(=O)NCCN1CCOCC1 (centres undefined) | i
Cc1ccccc1NC(=O)c1c(C)nc(Nc2nc3ccccc3s2)nc1C | i
O=C(CSc1nc2ccccc2[nH]1)Nc1cccc(NC(=O)C23CC4CC(CC(C4)C2)C3)c1 | 49%
CCC(Oc1ccccc1)C(=O)NCCN1CCOCC1 (centres undefined) | i
CCN(CC)CCNC(=O)c1ccc2c(=O)n(CCC3=CCCCC3)c(=S)[nH]c2c1 | i
COc1ccc(C(F)(F)F)cc1NC(=O)c1cc(S(=O)(=O)N2CCCCC2)c(Cl)cc1Cl | i
Cc1sc2nc(C(C)C)oc(=O)c2c1C | i
Cc1nnc(NC(=O)CSc2nnc(-c3cccnc3)n2Cc2ccccc2)s1 | i
COc1cc(C(=O)Nc2ccc(C(=O)NCc3ccccc3)cc2)c(Br)c(OC)c1OC | 4%
O=C(Nc1ccc2oc(-c3ccncc3)nc2c1)c1ccc(-c2ccc(Cl)c(Cl)c2)o1 | i
Cc1cc(=O)[nH]c(SCCOc2ccc(F)cc2)n1 | i
CCCC1=NN(c2ccc(C(=O)OCC)cc2)C(=O)C1 | 1%
c1cc(-c2noc(CCC3CCCC3)n2)ccn1 | 1%
Cc1ccccc1-n1c(SCC(=O)c2c[nH]c3ccccc23)nnc1-c1cccnc1 | 0%
O=c1c2c(nc3n1CCCS3)-c1ccccc1CC21CCCCC1 | i
CCOc1ccc(CNC(=S)Nc2ccc(C(C)CC)cc2)cc1OCC (centres undefined) | 1%
Cc1ccccc1C(=O)NCc1ccccn1 | 3%
COC(=O)c1c(N)sc2c1CCC(c1ccccc1)C2 (centres undefined) | 7%
CCOC(=O)N1CCN(C2CC(=O)N(c3ccc(OCC)cc3)C2=O)CC1 (centres undefined) | i
CCOc1ccccc1CN1CCC(C(=O)N2CCN(c3ccccc3F)CC2)CC1 | i

Of the compounds above, these contain two or more sulfur atoms:
canonical_smiles | Mtb growth
O=C(CSc1nsc(SCC(=O)N2CCCCC2)n1)N1CCCCC1 | 4%
Cc1nnc(NC(=O)CSc2nnc(-c3cccnc3)n2Cc2ccccc2)s1 | i

Later entries
canonical_smiles | Mtb growth
O=C(N1CCOCC1)N1CCN(c2ccccn2)CC1 | i
O=c1c2ccccc2nc(/C=C/c2cccc([N+](=O)[O-])c2)n1-c1ccccc1Cl | 4%
COC(=O)C(Oc1ccc2c(-c3ccc(OC)cc3)cc(=O)oc2c1C)c1ccccc1 (centres undefined) | i
CCOc1cc(C=O)cc(I)c1OCc1cccc(C(=O)O)c1 | i
CC1=C(C(N)=O)C(c2ccc(C(C)C)cc2)NC(=S)N1 (centres undefined) | i
O=C(c1cn(-c2ccccc2)nc1-c1ccc2c(c1)OCCO2)N1CCOCC1 | i
Cc1cc(C(C#N)c2ccc(Cl)cc2)c(Cl)cc1NC(=O)c1ccco1 (centres undefined) | 8%
CCOc1cc(S(=O)(=O)Nc2cccc3cn[nH]c23)ccc1Cl | 0%
Cc1occc1C(=O)Nc1sc(C)c(C)c1C(N)=O | i
COC(=O)C1=CN(C)C=C(C(=O)OC)C1c1ccc(C)s1 | i
Cc1ccc(Nc2ccc(-n3ccnc3)nn2)cc1Cl | 2.7µg/mL*
CCC(=O)Nc1ccc2c(c1)nc1n2CCN(Cc2ccccc2)C1 | i
O=C(COc1ccc(Cl)cc1Cl)Nc1cccc(O)c1 | i
Cc1ccc(C(=O)NCCc2ccc(S(N)(=O)=O)cc2)cc1C | 1%
COc1ccc(-c2cc(C(=O)Nc3ccc(C)cc3Br)c3ccccc3n2)c(OC)c1 | i
O=C(NCc1ccccc1Br)c1ccncc1 | i
CC1CCN(c2ccc(C(N)=O)cc2N)CC1 | i
CCOC(=O)Cc1csc(NC(=O)c2cccc(Cl)c2)n1 | i
COC(=O)Nc1ccc(S(=O)(=O)N2CCC(C(=O)N3CCCC(C)C3)CC2)cc1 (centres undefined) | i
CC(=O)Nc1ccc(NC(=O)c2ccc(CN3CCc4ccccc4C3)cc2)cc1 | i
Cc1cc(C)c(S(=O)(=O)N2CCN(C(=O)c3cccc(Br)c3)CC2)c(C)c1 | i
CN(C)S(=O)(=O)c1ccc(NC(=S)NC(=O)c2cccc([N+](=O)[O-])c2)cc1 | i
COc1ccc(NC(=O)C2CCN(C(=O)c3ccc(OC)cc3)CC2)cc1 | i
CCN1CCN(C(=S)Nc2ccccc2OC)CC1 | i
CC1CCN(c2ccc(NC(=S)NC(=O)c3ccco3)cc2)CC1 | 19%
O=C(Nc1ccc2c3c(cccc13)CC2)c1ccc2c(c1)OCCO2 | ?
Cc1cc(=O)oc2cc(OCC(=O)c3ccccc3)ccc12 | i
CCCCNCc1ccc(OC)c(OC)c1 | i
COC(=O)c1ccccc1NC(=O)Cn1c(CCC(=O)O)ccc1-c1cccs1 | 0%
O=S(=O)(Nc1ccccc1Cl)c1ccc2[nH]c(=S)oc2c1 | 1%
CC1(C)CC(=O)c2sc(NC(=O)CN3C(=O)c4ccccc4C3=O)nc2C1 | i
CCc1ccc(C(Nc2cc(C)ccn2)c2ccc3ccc(C)nc3c2O)cc1 (centres undefined) | i
CCOc1ccc(CNc2nc3nc(C)cc(C)n3n2)cc1 | i
COc1ccc(C(=O)Nc2c(C)cc(O)c(Cl)c2C)cc1 | i
CN(CC(=O)N1CCN(Cc2ccccc2)CC1)S(=O)(=O)c1ccc(Br)cc1 | 0%
COc1cc(OC)cc(C(=O)Nc2ccc(C(F)(F)F)cc2)c1 | i
O=S(=O)(Nc1ccccc1F)c1ccc(I)cc1 | i
Cc1cc(Cl)ccc1OCC(=O)Nc1cccc(NC(=O)COc2ccc(Cl)cc2C)n1 | i
O=C(NC(=S)NCC1COc2ccccc2O1)c1ccccc1 (centres undefined) | i
O=C(O)CCc1ccc(-c2ccccc2)n1-c1ccc([N+](=O)[O-])cc1 | i
CS(=O)(=O)N(Cc1ccccc1)c1ccccc1C(=O)NCCSCc1ccc(Cl)cc1 | i
Cc1nc(CSc2nnc3scc(-c4ccc(Cl)cc4)n23)cs1 | i
Cc1nn(Cc2ccccc2)c(C)c1/C=C/c1onc(C)c1[N+](=O)[O-] | 3%
Cc1ccc(/C(N)=N/OC(=O)CCCc2ccccc2)cc1 | 1%
Cc1ccc(NS(=O)(=O)c2ccc(NC(=O)COc3ccc(Cl)c(C)c3)cc2)cc1C | 0%
CC(Oc1ccc2c(c1)OCO2)C(=O)NNC(=S)NCc1ccc(Cl)cc1 (centres undefined) | 1%
Cc1cccc(NS(=O)(=O)c2ccc(NC(=O)c3cccc(I)c3)cc2)c1 | i
C=CCOc1ccc(CNCCN2CCOCC2)cc1OCC | i
CCN(CC)S(=O)(=O)c1ccc(Cl)c(Cl)c1OC | i
COCc1cc(C)nc(SCC(=O)Nc2ccc(C34CC5CC(CC(C5)C3)C4)cc2)c1C#N | i
O=C(CC(c1ccccc1)c1cc(Br)ccc1O)NCCN1CCOCC1 (centres undefined) | i
CCN(CC)S(=O)(=O)c1ccc(OC)c(NC(=O)c2c(-c3c(Cl)cccc3Cl)noc2C)c1 | i
CC1=C(C(=O)OCCc2ccccc2)C(c2cccc3ccccc23)C2=C(CCCC2=O)N1 (centres undefined) | i
C=CCNC(=O)c1ccccc1NC(=O)CSCc1cc(C)cc(C)c1 | 0%
Cn1c(NCc2ccccn2)nc2c1c(=O)n(Cc1ccccc1F)c(=O)n2C | i
CSc1cccc(NC(=O)COc2ccc(S(=O)(=O)N3CCCCC3)cc2)c1 | i

Next section, starting with the last 6 of the part before.
canonical_smiles | Mtb growth
O=C(CC(c1ccccc1)c1cc(Br)ccc1O)NCCN1CCOCC1 (centres undefined) | i
CCN(CC)S(=O)(=O)c1ccc(OC)c(NC(=O)c2c(-c3c(Cl)cccc3Cl)noc2C)c1 | i
CC1=C(C(=O)OCCc2ccccc2)C(c2cccc3ccccc23)C2=C(CCCC2=O)N1 (centres undefined) | i
C=CCNC(=O)c1ccccc1NC(=O)CSCc1cc(C)cc(C)c1 | 0%
Cn1c(NCc2ccccn2)nc2c1c(=O)n(Cc1ccccc1F)c(=O)n2C | i
CSc1cccc(NC(=O)COc2ccc(S(=O)(=O)N3CCCCC3)cc2)c1 | i
Cc1nc2nc[nH]n2c(=O)c1NC(=O)CC12CC3CC(CC(C3)C1)C2 | i
COc1ccc(C2C(C(=O)Nc3ccccc3)=C(C)N=C3SCC(=O)N32)cc1 (centres undefined) | i
CCOC(=O)c1coc(CNC(=O)c2coc(C)c2)c1 | i
CCC1(C)Cc2nc3nc(SCc4ccccc4)n(-c4ccccc4)c(=O)c3cc2CO1 (centres undefined) | i
CCN(CC)CC(O)Cn1c(C)c(-c2ccccc2)c2cc([N+](=O)[O-])ccc21 (centres undefined) | 29µg/mL*
CC(C)NC(=O)Cn1cc(C(=O)C(C)(C)C)c2ccccc21 | i
COc1ccc(CN2C(=O)c3cccc4cccc(c34)C2=O)cc1S(=O)(=O)N1CCOCC1 | i
CC1(C)C(=O)C2(C(=O)Nc3cccc(C(F)(F)F)c3)CCC1C2 (centres undefined) | 0%
CC1=C(C(=O)N2CCOCC2)C(c2ccc3c(c2)OCO3)C2=C(CC(C)(C)CC2=O)N1 (centres undefined) | i
CCCCc1nnc(NC(=O)CCSc2ccccc2)s1 | i
CCN(CC)CCOCCOc1cc(C(C)C)ccc1C | i
COC(=O)c1cc(C)sc1NC(=O)c1ccccc1Cl | 44%
O=C(CN(Cc1ccc(Br)cc1)S(=O)(=O)c1ccc(Cl)cc1)N1CCCC1 | 4%
Cc1ccccc1C(=O)N1CCC(C(=O)NC2CCCCC2)CC1 | i
CN(C)CCCNC(=O)c1ccc(COc2ccccc2Br)cc1 | 1%
CCOc1ccc(N/C(N)=N\c2nc(C)cc(=O)[nH]2)cc1 | 2%
CCN(C(=O)Nc1ccc(Cl)cc1)c1nnc(-c2ccccc2)s1 | 0%
COc1ccccc1C(=O)NC(=S)Nc1ccc(N2CCN(C(=O)c3ccco3)CC2)cc1 | i
C=CCn1c(CNC(=O)c2ccc(OC)cc2)nnc1SCC(=O)Nc1ccc(CC)cc1 | i
COc1cc(C(=O)CCN2CCC(c3ccccc3)C2)cc(OC)c1OC (centres undefined) | i
COc1cccc(-n2cnc3scc(-c4cccs4)c3c2=O)c1 | 1%
COc1ccc(Cl)cc1N(CC(=O)Nc1ccc(I)cc1C)S(C)(=O)=O | i
Cc1onc(-c2c(F)cccc2Cl)c1C(=O)Nc1ncccn1 | 2%
O=c1c2ccccc2nc(/C=C/c2ccco2)n1-c1cccc(O)c1 | i
N#Cc1ccccc1OCCn1cnc2ccccc21 | i
COCCNC(=O)c1ccc(N(Cc2ccccc2C)S(C)(=O)=O)cc1 | i
C=CCOc1ccc(Cl)cc1CNc1cccc(C(=O)O)c1 | i
S=c1[nH]nc2n(-c3ccccc3)c3ccccc3n12 | i
CCc1cccc(C)c1NC(=O)CN(c1ccc(Br)cc1)S(=O)(=O)c1ccccc1 | i
CS(=O)(=O)N(CC(=O)N1CCCCCC1)c1cc(Cl)cc(Cl)c1 | i
CC(C)(C)c1cc(C(=O)N2CCN(c3ncccn3)CC2)ccn1 | i
CCc1nnc(NC(=O)COc2ccccc2C(C)(C)C)s1 | i
Cc1ccc(-n2cnc(N=CN(C)C)c2C(=O)c2ccccc2)cc1 | i
O=C(c1ccccc1)c1cc(Cl)ccc1NC(=O)c1cccc(Cl)c1Cl | 6%
Cc1c(C(=O)Nc2ccccc2N2CCCCC2)cccc1[N+](=O)[O-] | 4%
CCOC(=O)C1C(c2cccc(OC)c2OC)NC(=S)NC1(O)C(F)(F)F (centres undefined) | 0%
CC(=O)NS(=O)(=O)c1ccc(NC(=S)NC(=O)Cc2ccccc2)cc1 | i
O=[N+]([O-])c1ccc2nc(-c3ccc(F)cc3)c(-c3ccc(F)cc3)nc2c1 | i
COc1ccc(N2C(=O)CC(NCc3ccc(OC)c(OC)c3)C2=O)cc1 (centres undefined) | i
COC(=O)c1ccccc1NS(=O)(=O)c1cc(C)ccc1OC | 1%
C=CCn1c(=S)[nH]c2ccc(I)cc2c1=O | 12%
COc1ccc(NC(=O)c2sc3cccc(Cl)c3c2Cl)cc1 | i
CCN1CCN(CCOCCOc2ccccc2)CC1 | i
CCCc1cc(=O)n2[nH]c(-c3ccc(C(C)(C)C)cc3)cc2n1 | i
COc1ccc(-c2csc3ncn(CC(=O)Nc4sc5c(c4C#N)CCC5)c(=O)c23)cc1OC | i
Cc1cc([N+](=O)[O-])ccc1NC(=O)Nc1cccc(C(F)(F)F)c1 | 0.24µg/mL*
Cc1ccc(S(=O)(=O)N(c2ccccc2)C(F)F)cc1 | 3%

From PubChem BioAssay

Not all compounds are listed; count on the stated rates, not on these rows.
